Ecoli rRNA inh: inhibitors of bacterial rRNA selective over humanized ribosomes | E. coli WT GFP vs humanized-ribosome RFP mutants, fluorescence, 24 h; active compounds read low; DMSO median 0, no signal -100 | GFP signal change (wild-type ribosome), % (test concentration not listed) | actives 1.6% (n = 350,000) | AID 720706;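 active means significant combined selectivity score with lowered wild-type GFP, culture density cut under 30%, mutant RFP and density less affected; inactive means any of these conditions unmet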; further: one replicate is shown; some compounds called inactive have numbers as strong as hits
Ecoli rRNA inh OD600: further read-out of Ecoli rRNA inh, marked with its call; OD600 change, %; measured here: OD600 growth;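 optical density of the mix in the first replicate; 0 = DMSO median and -100 = no signal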
Ecoli rRNA inh RFP: further read-out of Ecoli rRNA inh, marked with its call; RFP signal change, %; measured here: RFP humanized mutant strains;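 first replicate; 0 = DMSO median and -100 = no signal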
The depositor's hits bear a star; i = inactive; / = no result given; & = joins results of further samples. These rows are one share of the data. The share of hits here may be higher or lower than overall.

SMILES	Ecoli rRNA inh	Ecoli rRNA inh OD600	Ecoli rRNA inh RFP
CO[C@@H]1CN(C)C(=O)c2ccc(NC(=O)NC(C)C)cc2OC[C@H](C)N(CCC(F)(F)F)C[C@@H]1C	0	2	-1.1
Cc1ccc(S(=O)(=O)N(C)C[C@H]2OCCCC[C@H](C)Oc3ccc(NC(=O)NC4CCCCC4)cc3C(=O)N([C@@H](C)CO)C[C@H]2C)cc1	4	9	0.1
C[C@@H]1CCCCO[C@@H](CN(C)C(=O)c2ccncc2)[C@H](C)CN([C@@H](C)CO)C(=O)c2cc(NS(=O)(=O)c3cccs3)ccc2O1	-1	-3	-0.3
CC1(C(=O)NS(=O)(=O)c2ccc(C#N)cc2)CCN1C(=O)c1ccc(C2CCCCC2)cc1 (stereo unspecified)	-7	-3	2.3
CCCNC(=O)N1C[C@@H](O)COC[C@H]2O[C@@H](CC(=O)N3CCN(C)CC3)CC[C@@H]21	-3	6	-1.1
C[C@@H]1CN([C@@H](C)CO)C(=O)c2cc(C#CC3(O)CCCC3)cnc2O[C@@H]1CN(C)S(C)(=O)=O	1	7	-4.8
CCCNC(=O)C[C@@H]1C[C@H]2c3cc(NC(=O)Cc4ccncc4)ccc3O[C@H]2[C@@H](CO)O1	1	12	-2.3
C[C@@H]1CN([C@H](C)CO)C(=O)Cc2cc(NC(=O)Nc3ccc4c(c3)OCO4)ccc2O[C@@H]1CN(C)C(=O)Nc1ccc(F)cc1	3	11	-0.8
CC(C)NC(=O)N[C@H]1C=C[C@H](CC(=O)NCCCN(C)C)O[C@H]1CO	0	-3	0.7
C[C@@H]1CN([C@H](C)CO)C(=O)c2cc(NS(=O)(=O)c3ccc(Cl)cc3)ccc2O[C@@H]1CN(C)Cc1ccc2c(c1)OCO2	-3	-23	3.6
C[C@@H]1CN(C)C(=O)c2cc(N)ccc2O[C@H]1CN(C)S(C)(=O)=O	3	2	1.5
Cc1cc(C)nc(Nc2nc(C(N)Cc3ccc(Cl)cc3)cs2)n1 (stereo unspecified)	-60	-81	-22
COc1ccc(S(=O)(=O)N(C)C[C@H]2Oc3ccc(NS(=O)(=O)c4ccc(C)cc4)cc3CC(=O)N([C@@H](C)CO)C[C@@H]2C)cc1	-2	-1	0.7
C/C=C/c1ccc([C@@H]2[C@@H](CO)N3CCCCN(C(=O)Nc4cc(F)ccc4F)C[C@@H]23)cc1	-48	-64	-2.8
CC1NC(=O)c2cccnc2-n2c1nc1ccccc1c2=O (stereo unspecified)	22	9	2.3
COc1ccc2c3c([nH]c2c1)[C@H](CO)N(C(=O)Nc1ccc(F)cc1)CC31CCN(C(=O)Nc2ccc3c(c2)OCO3)CC1	-3	-4	-2.7
COC(=O)C1=C(C)N(Cc2ccc(C(F)(F)F)cc2)C(=NCC2CC2)NC1c1ccccc1 (stereo unspecified)	-56	-80	-15
C[C@H]1CN([C@@H](C)CO)S(=O)(=O)c2ccc(C#CC3CCCC3)cc2O[C@H]1CN(C)CC1CC1	-21	-37	1.5
CC(=O)N[C@@H]1CC[C@@H](CCNC(=O)C2CCC2)O[C@@H]1CO	1	-8	0.6
CC1(C)CC(=O)C=C(c2ccc(COC(=O)C(c3ccccc3)c3ccccc3)cc2)C1=O	9	8	-2.8
CC(=O)Nc1cc(-c2ccc(S(C)(=O)=O)cc2)cn2c(-c3ccc(F)cc3)cnc12	-7	-5	18
CC(C)C[C@H]1CN([C@@H](Cc2ccccc2)CN2CCC[C@H]2CN2C(=O)C(=O)NC[C@@H]2Cc2ccccc2)C(=O)C(=O)N1CCc1ccccc1	17	9	5.2
COC(=O)N1CCCCC1c1cc(C(=O)NCc2ccccc2)no1 (stereo unspecified)	0	2	-0.1
CCC(=O)N1CC(=O)N2[C@H](CO)[C@@H](c3ccc(C#CCC(C)C)cc3)[C@@H]2C1	0	4	3.1
O=c1[nH]c(=O)n2c(c1-c1ccccc1)OC(CBr)C2 (stereo unspecified)	-2	-1	0.3

Next section; it opens with the 2 that closed the last part.
SMILES	Ecoli rRNA inh	Ecoli rRNA inh OD600	Ecoli rRNA inh RFP
CCC(=O)N1CC(=O)N2[C@H](CO)[C@@H](c3ccc(C#CCC(C)C)cc3)[C@@H]2C1	0	4	3.1
O=c1[nH]c(=O)n2c(c1-c1ccccc1)OC(CBr)C2 (stereo unspecified)	-2	-1	0.3
Cc1noc(C)c1S(=O)(=O)Nc1ccc2c(c1)C(=O)N([C@@H](C)CO)C[C@H](C)[C@@H](CN(C)C(=O)NC1CCCCC1)OCCCC[C@H](C)O2	3	-7	5.1
Cc1ccccc1C(=O)OCC(=O)N1CC(=O)Nc2ccccc21	1	10	0.4
CC(C)NC(=O)N1CCCCN2[C@@H](CO)[C@H](c3ccc(C#CC4CC4)cc3)[C@@H]2C1	-3	15	-1.8
CC(C)NC(=O)Nc1ccc2c(c1)C(=O)N([C@@H](C)CO)C[C@H](C)[C@@H](CN(C)Cc1ccc(C(=O)O)cc1)O2	4	0	-4.2
C/C=C/c1ccc2c(c1)O[C@H](CN(C)C(=O)Nc1ccccc1)[C@@H](C)CN([C@@H](C)CO)S2(=O)=O	-6	-9	2.4
COc1ccc2c3c(n(C)c2c1)[C@@H](CO)N(C(=O)c1ccccc1)CC31CCN(CC2CC2)CC1	3	-9	-7.2
CO[C@@H]1CC[C@H]2CCOc3ccc(C#N)cc3C(=O)N(C)[C@@H](C)C(=O)N(C)C[C@H]1O2	4	5	-1.4
CC[C@H](C)[C@@H](CO)NC(=O)[C@H]1O[C@@H](n2ccc(=O)[nH]c2=O)[C@H](O)[C@@H]1O	3	5	-1.7
COc1ccc(S(=O)(=O)N(C)C[C@@H]2Oc3ccc(NC(=O)Nc4ccccc4)cc3C(=O)N([C@@H](C)CO)C[C@@H]2C)cc1	-3	-3	3.6
CN(C)C(=O)[C@H]1[C@H](CO)[C@H]2Cn3c(ccc(-c4ccccc4)c3=O)[C@@H]1N2CC1CCCC1	-2	7	-1.2
COc1cccc(S(=O)(=O)N2C[C@@H](O)COC[C@@H]3O[C@@H](CC(=O)N4CCCCC4)CC[C@H]32)c1	-4	-2	-2.8
CCCCNC(=O)C[C@@H]1C[C@@]2(C(=O)OCC)CCCC=C2N(Cc2ccc(Cl)cc2Cl)C1=O	0	-2	-3.6
Cc1noc(C)c1NC(=O)N1C[C@@H](O)COC[C@@H]2O[C@H](CC(=O)N[C@H]3CCN(Cc4ccccc4)C3)CC[C@H]21	3	1	-0.4
Cn1cnc(S(=O)(=O)N2C[C@H](O)COC[C@@H]3O[C@H](CC(=O)N4CCN(c5ccccc5)CC4)CC[C@H]32)c1	2	-24	-3.7
C[C@H]1CN([C@@H](C)CO)C(=O)Cc2cc(NC(=O)CCCCCC(=O)Nc3ccccc3N)ccc2O[C@H]1CN(C)S(=O)(=O)c1cn(C)cn1	0	3	-1.9
C[C@@H]1CN([C@@H](C)CO)C(=O)c2cc(NC(=O)c3ccncc3)ccc2O[C@H]1CN(C)C(=O)Nc1cccc2ccccc12	2	0	-0.8
COc1ccc(S(=O)(=O)N(C)C[C@H]2Oc3ccc(NC(=O)Cc4ccccc4)cc3C(=O)N([C@H](C)CO)C[C@H]2C)cc1	-4	-13	1.2
C[C@H](CO)N1C[C@H](C)[C@@H](CN(C)Cc2ccccc2)Oc2c(NC(=O)Nc3ccccc3)cccc2C1=O	-7	-24	0.1
CCOc1ccc(S(=O)(=O)N2CCCCC2)cc1NC(=O)Cc1cc(OC)c(OC)c(OC)c1	10	11	-2.8
C[C@H](CO)N1C[C@H](C)[C@H](CN(C)S(=O)(=O)c2ccccc2)OCc2ccccc2-c2c(n(C)c3ccccc23)C1=O	3&0	2&10	-0.6&-4.9
CC(C)NC(=O)Nc1ccc2c(c1)C(=O)N([C@H](C)CO)C[C@H](C)[C@@H](CN(C)Cc1ccc(Oc3ccccc3)cc1)O2	2	2	1.6
COc1ccc(CN(C)C[C@@H]2OCCCC[C@H](C)Oc3ccc(NC(=O)Nc4ccc(F)cc4)cc3C(=O)N([C@H](C)CO)C[C@H]2C)cc1	-19&-7	-45&-44	24&33
C[C@H]1CN([C@@H](C)CO)S(=O)(=O)c2ccc(-c3ccccc3)cc2O[C@H]1CN(C)Cc1cncnc1	-2	-11	3.3
COCc1cn(CC[C@@H]2CC[C@@H](NC(=O)Nc3ccc(F)cc3)[C@@H](CO)O2)nn1	1	0	-0.5
CCCC#Cc1cnc2c(c1)C(=O)N([C@H](C)CO)C[C@@H](C)[C@@H](CN(C)S(=O)(=O)c1ccccc1)O2	-2	14	5.0

Seven compounds from above, limited to Ecoli rRNA inh OD600 and Ecoli rRNA inh RFP:
| Compound | Ecoli rRNA inh OD600 | Ecoli rRNA inh RFP |
| --- | --- | --- |
| COc1ccc(S(=O)(=O)N(C)C[C@H]2Oc3ccc(NC(=O)Cc4ccccc4)cc3C(=O)N([C@H](C)CO)C[C@H]2C)cc1 | -13 | 1.2 |
| C[C@H](CO)N1C[C@H](C)[C@@H](CN(C)Cc2ccccc2)Oc2c(NC(=O)Nc3ccccc3)cccc2C1=O | -24 | 0.1 |
| CCOc1ccc(S(=O)(=O)N2CCCCC2)cc1NC(=O)Cc1cc(OC)c(OC)c(OC)c1 | 11 | -2.8 |
| C[C@H](CO)N1C[C@H](C)[C@H](CN(C)S(=O)(=O)c2ccccc2)OCc2ccccc2-c2c(n(C)c3ccccc23)C1=O | 2&10 | -0.6&-4.9 |
| CC(C)NC(=O)Nc1ccc2c(c1)C(=O)N([C@H](C)CO)C[C@H](C)[C@@H](CN(C)Cc1ccc(Oc3ccccc3)cc1)O2 | 2 | 1.6 |
| COc1ccc(CN(C)C[C@@H]2OCCCC[C@H](C)Oc3ccc(NC(=O)Nc4ccc(F)cc4)cc3C(=O)N([C@H](C)CO)C[C@H]2C)cc1 | -45&-44 | 24&33 |
| C[C@H]1CN([C@@H](C)CO)S(=O)(=O)c2ccc(-c3ccccc3)cc2O[C@H]1CN(C)Cc1cncnc1 | -11 | 3.3 |

Next part
SMILES	Ecoli rRNA inh	Ecoli rRNA inh OD600	Ecoli rRNA inh RFP
COc1ccc(NC(=O)Nc2ccc3c(c2)C(=O)N([C@@H](C)CO)C[C@H](C)[C@@H](CN(C)Cc2ccccc2)OCCCC[C@H](C)O3)cc1	6	-15	24
CCC(=O)Nc1ccc2c(c1)C(=O)N(C)C[C@H](OC)[C@H](C)CN(CCC(F)(F)F)[C@H](C)CO2	1	2	-0.3
O=S(=O)(c1ccccc1)N1C[C@@H]2[C@H](c3ccccc31)[C@@H](CO)N2Cc1ccc(F)cc1	-56	-71	-13
C[C@@H]1CCCCO[C@H](CN(C)C(=O)c2ccccc2)[C@@H](C)CN([C@H](C)CO)C(=O)c2cc(NC(=O)CCC(F)(F)F)ccc2O1	2	8	-0.3
O=C(CN1CCOCC1)NCC[C@@H]1CC[C@@H](NC(=O)c2ccc3c(c2)OCO3)[C@@H](CO)O1	1	-2	-0.4
Cc1noc(C)c1NC(=O)N(C)C[C@@H]1OCCCC[C@@H](C)Oc2ccc(NC(=O)c3ccccc3)cc2C(=O)N([C@@H](C)CO)C[C@H]1C	-7	1	-2.1
CNC[C@@H]1Oc2ccc(NS(=O)(=O)c3cccs3)cc2C(=O)N([C@@H](C)CO)C[C@@H]1C	2	8	-2.0
Cc1noc(C)c1S(=O)(=O)Nc1ccc2c(c1)C(=O)N([C@@H](C)CO)C[C@H](C)[C@H](CN(C)Cc1ccc(C(=O)Nc3ccccc3N)cc1)O2	-1	-3	1.6
CC(=O)N1CCN(c2cc(-c3ccccc3)nc3cc(-c4cccc(Cl)c4)nn23)CC1	7	26	4.4
CCOc1ccc(Cl)cc1-c1cc(C(=O)NCCc2ccncc2)[nH]n1	-36	-56	-2.3
C[C@@H]1CCCCO[C@H](CN(C)Cc2ccc(C(=O)O)cc2)[C@H](C)CN([C@@H](C)CO)C(=O)c2cc(NC(=O)Cc3ccccc3)ccc2O1	3	1	1.1
COc1ccc(-n2nnnc2C(CCSC)N2CCN(C/C=C/c3ccccc3)CC2)cc1 (stereo unspecified)	-54	-73	-9.8
C[C@@H]1CN([C@@H](C)CO)C(=O)c2cc(/C=C/c3ccccc3)cnc2O[C@@H]1CN(C)C(=O)C1CCCCC1	-3	-13	7.6
COc1ccc2c3c(n(C)c2c1)[C@H](CO)N(C(=O)C1CC1)CC31CN(C(=O)C2CCOCC2)C1	-1	10	0.8
C[C@@H]1CCCCO[C@@H](CN(C)S(=O)(=O)c2cn(C)cn2)[C@H](C)CN([C@H](C)CO)C(=O)c2cc(NC(=O)c3ccccc3)ccc2O1	0	7	1.5
COc1cccc(CNC(=O)C[C@H]2CC[C@H](NC(=O)C3CCC3)[C@H](CO)O2)c1	7	5	-0.2
C[C@@H]1CN([C@H](C)CO)C(=O)Cc2cc(NC(=O)Nc3ccc(F)cc3)ccc2O[C@@H]1CN(C)S(=O)(=O)c1ccc(Cl)cc1	1	0	0.1
C[C@H](CO)N1C[C@H](C)[C@H](CN(C)C(=O)c2cccnc2)Oc2cc(C#CC3CC3)ccc2S1(=O)=O	3	2	3.0
CCN1[C@@H]2Cn3c(ccc(-c4ccccc4F)c3=O)[C@H]1[C@@H](C(=O)NCc1ccc(F)cc1)[C@@H]2CO	2	2	0.0
C[C@H](CO)N1C[C@H](C)[C@@H](CN(C)CC2CC2)OCc2ccccc2-c2c(n(C)c3ccccc23)C1=O	5	9	-4.8
CNC(=O)C[C@H]1CC[C@@H]2[C@@H](COc3ccc(NC(=O)Nc4ccc(C)cc4)cc3C(=O)N2C)O1	0	-1	-3.8
CCC(=O)N(C)C[C@H]1Oc2ncc(-c3ccccc3OC)cc2C(=O)N([C@@H](C)CO)C[C@@H]1C	1	3	-2.8
COCc1cn(CC[C@H]2CC[C@@H](NC(=O)Nc3c(C)noc3C)[C@@H](CO)O2)nn1	i	/	/
Cc1cccc(-c2ccc([C@H]3[C@@H](CO)N4C(=O)CN(C(=O)c5cccnc5)C[C@H]34)cc2)c1	-1	38	1.4
